Source: PubChem BioAssay (ICCB-Longwood Screening Facility, Harvard Medical School)
GIV-Gai inh: inhibitors of GIV peptide binding to Galpha-i3, primary screen, biochemical, fluorescence polarization, FITC-GIV GBA peptide, rat Galphai3 | percent of control (FP), % (no concentration beside the values) | 90 min; hits give low values; scaled: aluminum fluoride 0%, vehicle 100% | AID 1224905, 2016 | hit rate 0.42% among 210,000 | Guanine nucleotide-binding protein G(i) subunit alpha-3 (Rattus norvegicus), P08753;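 active = replicate mean at 85% of control or lower, very high polarization wells dropped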;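 note: wells of about 15 µL received 100 nL stock; the first replicate is given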
Target sequence (P08753 whole entry, looked up): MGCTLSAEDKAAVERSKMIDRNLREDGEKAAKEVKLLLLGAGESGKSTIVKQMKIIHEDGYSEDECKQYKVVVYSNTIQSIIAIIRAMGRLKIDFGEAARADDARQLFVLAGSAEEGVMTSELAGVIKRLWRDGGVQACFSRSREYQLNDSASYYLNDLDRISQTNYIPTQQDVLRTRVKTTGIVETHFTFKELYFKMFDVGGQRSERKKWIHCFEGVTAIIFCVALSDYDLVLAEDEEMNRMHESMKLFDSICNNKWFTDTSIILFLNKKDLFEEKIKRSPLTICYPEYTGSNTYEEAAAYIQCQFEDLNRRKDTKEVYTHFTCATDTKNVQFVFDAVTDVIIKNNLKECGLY
Sa growth inh: S. aureus growth inhibition at 42 and 30 °C, primary screen, LtaS inhibitor project, RN4220, two temperatures; AID 720641, 2013; OD600, 20 h, 42 °C; hits give low values; relative growth, % (concentration not given with the values); hit rate 0.53% among 170,000;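 active = growth at 42 °C up to 50% and 20 or more points under that at 30 °C, or under 10% at both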;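 note: 300 nL library stock went into each well; scaled to the means of positive and negative controls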
HCMV UL50-53 inh: inhibitors of HCMV UL50-UL53 interaction, biochemical, HTRF | hit rate 0.15% among 190,000 | inhibition, % (no concentration beside the values) | AID 1918969, 2023 | HCMV UL50-UL53 nuclear egress complex (human cytomegalovirus) | normalized percent inhibition;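 active = both replicates at 50% or more, plus weaker picks with an unusually low signal ratio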;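 note: stock transfer was 100 nL into about 20 µL; 0% = negative control wells and 100% = wells with untagged competitor protein; inactives centre near -12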
Sa growth inh second temp: further read-out of Sa growth inh, marked with its call; relative growth, %; measured here: growth at 30 °C;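 optical density after 20 h as mean of two plates; 100% = untreated growth and lower means inhibition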
The depositor's hits bear a star; . = not tested or not shown; & = joins results of further samples.

SMILES	GIV-Gai inh	Sa growth inh	Sa growth inh second temp	HCMV UL50-53 inh
Clc1cccc(-n2ncc3c(NCCCN4CCOCC4)ncnc32)c1	100	115	86	.
Cc1cc(/C=C(\C#N)C(=O)C(C)(C)C)c(C)n1-c1ccc(I)cc1	.	106	95	15
CC(=O)N1CCCc2cc(S(=O)(=O)N3CCCC(C(=O)NC(C)C)C3)ccc21 (centres undefined)	103	123	99	.
NC1=NC(=O)/C(=C\c2cc3ccccc3nc2N2CCCCC2)S1	111	100	90	.
CC1=CCC2C(C)(CC[C@H](O)C2(C)C)C1COc1ccc2ccc(=O)oc2c1 (some centres undefined)	.	64	57	-13
Cc1cc(NC(=O)CSc2ncc(C(=O)Nc3ccc(Cl)cc3)c(=O)n2C)no1	97	115	86	.
Nc1ccc(-c2nc(-c3ccccc3)nc3ccccc23)cc1	101	85	84	-13
COc1ccc(-c2c(C#N)c(SCC(=O)Nc3ccccc3C)nc(C)c2C(=O)Nc2ccccc2)cc1OC	104	113	73	-28
CC(C)(C)c1ccc(CSCC(=O)Nc2ccccc2C#N)cc1	99	114	97	21
COC(=O)c1sccc1NC(=O)Cn1ccn2nc(-c3ccc(OC)c(OC)c3)cc2c1=O	101	.	.	2
O=C(NC1CC1)C(Cc1ccccc1)NS(=O)(=O)c1ccccc1F (centres undefined)	.	100	93	-3
O=C(NCc1ccccc1)c1csc2c1CCCC2	100	86	89	.
CCSc1nc2c([nH]c3ccccc32)c(=O)n1-c1ccc(OC)cc1	105	125	92	.
Cc1ccc(-c2csc3ncn(CCCN(C)C)c(=O)c23)cc1	99	.	.	5
COc1ccc(-c2cc(C(F)(F)F)n3ncc(C(=O)N(C)Cc4cnn(C)c4C)c3n2)cc1OC	98	.	.	-17
N#CCSc1nc2ccccc2c(=O)n1Nc1ccccc1	.	99	116	16
CCOC(=O)c1cn(-c2ccc(N3CCC(C)CC3)nn2)nc1N	99	88	81	-31
COc1ccc(/C=N/c2nc3c(ccc4ccccc43)s2)cc1	.	111	87	-41
Cc1cc(NC2CCCC2)n2nc(C(F)(F)F)c(-c3ccc(F)cc3)c2n1	100	.	.	-26
Cn1c(=O)c2c(SCC(=O)N3CCCC3)nc(C3CC3)nc2n(C)c1=O	104	105	88	-17
CCCn1c(=O)c2sccc2n2c(CCCC(=O)N(C)Cc3ccco3)nnc12	104	106	89	-27
COc1ccc2[nH]c3c(=O)n(CCCC(=O)N4CCCC4)c(=S)[nH]c3c2c1	111	106	83	.
CSc1ccc(S(=O)(=O)Nc2ccc(S(=O)(=O)N3CCCCCC3)cc2)cc1	106	116	96	-8
CC(C)CC(C1=C(O)CCCC1=O)C1=C(O)CCCC1=O	94	103	90	-5
COCCc1nnc2n1N=C(c1ccc(Cl)cc1)CS2	105	.	.	-9
Further results follow:
SMILES	GIV-Gai inh	Sa growth inh	Sa growth inh second temp	HCMV UL50-53 inh
COc1ccc(NC(=O)C2CCCN(S(=O)(=O)c3c(C)[nH]c(=O)[nH]c3=O)C2)cc1 (centres undefined)	108	105	108	4
COC(=O)CCNc1nc(-c2ccc(Br)cc2)nc2ccccc12	101	.	.	-30
CCS(=O)(=O)N1N=C(c2ccccc2)CC1c1cc2cc3c(cc2nc1Cl)OCCO3 (centres undefined)	-53*	106	101	.
COC(OC)c1ccnc(SCc2ccccc2Cl)n1	101	99	110	0
CSc1ncc(Nc2nc(C)cs2)cn1	104	92	81	-15
O=C(CSc1nccc(=O)[nH]1)Nc1cccc2ccccc12	100	100	91	-35
CCCCN(C)C(=O)Cn1c(SCC(=O)Nc2ccc(C)c(C)c2)nc2ccccc21	100	96	85	.
CNC(=O)c1cc(-c2ccc(OC)c(S(=O)(=O)N3CCOCC3)c2)on1	111	100	93	-3
Cc1sc(-c2ccno2)cc1S(=O)(=O)NC1CCCC1	111	.	.	-26
CN(C)c1cccc(C(=O)Nc2cccc3nsnc23)c1	100	.	.	-61
CC1=C(C(=O)OCc2ccccc2)C(c2ccoc2)C(C#N)=C(N)S1 (centres undefined)	.	99	66	2
Cc1oc(C(=O)O)cc1COc1ccc2c(-c3ccccc3)cc(=O)oc2c1	89	47	34	-64
Oc1cncc(Cc2ccccc2)c1	102	111	102	-16
Cc1ccc(C)n1-c1ccc(C(=O)NCC(F)(F)F)cc1	.	70	63	-9
CCCCn1c(C)nc2cc(S(=O)(=O)N3CCOCC3)ccc21	.	102	84	-18
Cc1ccc(-c2nnn(CC(=O)c3ccc4[nH]c(=O)[nH]c4c3)n2)cc1	.	116	66	-18
CCCCN(C(=O)c1cccc(S(=O)(=O)N2CCOCC2)c1)c1c(N)n(CCC)c(=O)[nH]c1=O	.	78	93	-23
CC(=O)C1=C(C)Nc2ncnn2C1c1ccc2c(c1)OCO2 (centres undefined)	110	.	.	-14
COc1ccc(N2C(=O)c3cc4sccc4n3CC2(C)C(=O)NC2CCC(C)CC2)cc1OC (centres undefined)	97	.	.	2
CC1CC(C)CN(S(=O)(=O)c2ccc3[nH]cc(C(=O)O)c(=O)c3c2)C1 (centres undefined)	104	91	86	0
CCOC(=O)N1CCC2(CC1)C(C#N)=C(N)OC1=C2C(=O)CCC1	.	94	96	3
O=C(COC(=O)Cc1ccc(F)cc1)Nc1ccccc1	.	84	90	2
CC(Sc1nc2c(c(=O)[nH]1)CCCC2)C(=O)Nc1ccccc1 (centres undefined)	105	.	.	10
O=C(CSc1nc2ccccc2[nH]1)Nc1cc(NC(=O)CSc2nc3ccccc3[nH]2)cc(C(=O)O)c1	108	.	.	22
COc1cc(C2Nc3c(C)cc(C)cc3-c3cc(C)nn32)cc(OC)c1O (centres undefined)	101	105	91	18
Additional results:
SMILES	GIV-Gai inh	Sa growth inh	Sa growth inh second temp	HCMV UL50-53 inh
COc1ccc2c(CNCCc3ccccc3C)c(C(=O)O)n(Cc3ccccc3C)c2c1	105	94	106	.
NS(=O)(=O)c1ccc(CCNC(=O)CC2(CC(=O)O)CCCCC2)cc1	.	75	101	-26
O=C(CSc1nnc2[nH]c(=O)cc(-c3ccccc3)n12)Nc1ccccc1C(F)(F)F	101	110	73	.
N#CC1CCn2c(cc3sccc32)C1=O (centres undefined)	94	87	60	-32
Cc1nn2c(NCc3ccccn3)cc(C(C)(C)C)nc2c1-c1ccc(F)cc1	103	.	.	-26
O=C1C2=C(Nc3[nH]c(=O)[nH]c(=O)c3C2c2cccs2)c2ccccc21 (centres undefined)	101	102	70	-64
Fc1ccc(Nc2nc(-c3cccc(Cl)c3)c3c(n2)-c2ccccc2OC3)c(F)c1	108	77	84	5
Cc1c2cnn(CC(=O)NCc3ccco3)c(=O)c2c(C)n1Cc1ccccc1	109	103	104	-2
C=CCN1C(=O)C(C)(C)Nc2ccccc21	104	78	86	-6
O=C(Oc1ccc(C2SCCS2)cc1)C1CCCCC1	.	122	86	4
O=C(O)COc1ccc(C=Nc2ccc3c(c2)OCO3)cc1Cl	.	84	66	-21
O=C(O)C1=C(C(=O)Nc2cccc(C(F)(F)F)c2)CCCC1	105	118	80	-1
COc1ccc2ncc3c(-c4ccc(C)c(C)c4)nn(CC(=O)Nc4ccccc4)c3c2c1	99	84	94	.
Cc1cc(/C=C/C(=O)O)c(C)n1-c1ccnn1C(C)C	.	101	86	-12
COc1ccc(-n2nc3cc(C)c(N)c(Br)c3n2)cc1	112	94	57	-8
CCC(SC1=Nc2ccccc2NC(CC(=O)OC)=C1)C(=O)NC1CCC(C)CC1 (centres undefined)	111	.	.	-7
Cc1ccc(C(=O)N2CCCCC2C(=O)O)o1 (centres undefined)	103	88	87	-32
Cc1nc2nc3c(c(Nc4ccc(F)c(Cl)c4)n2n1)CCCC3	104	.	.	-19
CCCc1ccc(C2=C(C)SC3=NS(=O)(=O)CCN32)cc1	.	90	99	-38
CCOC(=O)CC(=O)c1sc(SC)nc1N	105	90	93	5
Cc1ccc(S(C)(=O)=O)cc1	107	90	90	-35
Cc1ccccc1C1CC(c2ccc(NS(C)(=O)=O)cc2)=NN1C(=O)CCCC(=O)O (centres undefined)	103	.	.	-54
O=C(CSc1ccccc1Cl)NC12CC3CC(CC(C3)C1)C2	.	113	86	-34
CCCNC(=O)c1cc2n(n1)CCCN(Cc1ccc(C)cc1)C2=O	99	104	103	.
CN(C)CC/C=C1\c2ccccc2Sc2ccc(Cl)cc21	.	96	93	-20&-18

An excerpt of these results, bar-delimited.
molecule | GIV-Gai inh | Sa growth inh | Sa growth inh second temp | HCMV UL50-53 inh
N#CC1CCn2c(cc3sccc32)C1=O (centres undefined) | 94 | 87 | 60 | -32
Cc1nn2c(NCc3ccccn3)cc(C(C)(C)C)nc2c1-c1ccc(F)cc1 | 103 | . | . | -26
O=C1C2=C(Nc3[nH]c(=O)[nH]c(=O)c3C2c2cccs2)c2ccccc21 (centres undefined) | 101 | 102 | 70 | -64
Fc1ccc(Nc2nc(-c3cccc(Cl)c3)c3c(n2)-c2ccccc2OC3)c(F)c1 | 108 | 77 | 84 | 5
Cc1c2cnn(CC(=O)NCc3ccco3)c(=O)c2c(C)n1Cc1ccccc1 | 109 | 103 | 104 | -2
C=CCN1C(=O)C(C)(C)Nc2ccccc21 | 104 | 78 | 86 | -6
O=C(Oc1ccc(C2SCCS2)cc1)C1CCCCC1 | . | 122 | 86 | 4
O=C(O)COc1ccc(C=Nc2ccc3c(c2)OCO3)cc1Cl | . | 84 | 66 | -21
O=C(O)C1=C(C(=O)Nc2cccc(C(F)(F)F)c2)CCCC1 | 105 | 118 | 80 | -1
COc1ccc2ncc3c(-c4ccc(C)c(C)c4)nn(CC(=O)Nc4ccccc4)c3c2c1 | 99 | 84 | 94 | .
Cc1cc(/C=C/C(=O)O)c(C)n1-c1ccnn1C(C)C | . | 101 | 86 | -12
COc1ccc(-n2nc3cc(C)c(N)c(Br)c3n2)cc1 | 112 | 94 | 57 | -8
CCC(SC1=Nc2ccccc2NC(CC(=O)OC)=C1)C(=O)NC1CCC(C)CC1 (centres undefined) | 111 | . | . | -7
Cc1ccc(C(=O)N2CCCCC2C(=O)O)o1 (centres undefined) | 103 | 88 | 87 | -32
Cc1nc2nc3c(c(Nc4ccc(F)c(Cl)c4)n2n1)CCCC3 | 104 | . | . | -19
CCCc1ccc(C2=C(C)SC3=NS(=O)(=O)CCN32)cc1 | . | 90 | 99 | -38
CCOC(=O)CC(=O)c1sc(SC)nc1N | 105 | 90 | 93 | 5
Cc1ccc(S(C)(=O)=O)cc1 | 107 | 90 | 90 | -35

Additional compounds follow.
SMILES	GIV-Gai inh	Sa growth inh	Sa growth inh second temp	HCMV UL50-53 inh
Cc1nc(SCC(=O)OCN2C(=O)c3ccccc3C2=O)n[nH]1	100&103	116	102	-64&-52
C=CCn1c(CN(c2ccc(F)cc2)S(C)(=O)=O)nnc1SCC(=O)c1cc(C)n(C)c1C	96	.	.	-13
Oc1cc2c(cc1O)CN(C(=S)NCCc1ccc(Cl)cc1)CCC2	105	.	.	1&-37&-37&-5&-36
CCN1CCN(c2cc(-c3ccccc3)c3ccccc3n2)CC1	.	111	69	-11
N#Cc1c(F)cccc1NCCCn1ccnc1	98	101	82	-20
Cc1cccc(C(=O)N[C@H](C(=O)Nc2nc3ccccc3[nH]2)C(C)C)c1	.	107	96	-21
Cc1cc(C)c2c(=O)c3c(oc2c1)C(=O)N(Cc1ccco1)C3c1ccc(F)cc1 (centres undefined)	97	102	90	-14
O=C(c1cc(O)ccc1O)c1coc2ccc(O)cc12	106	75	53	-19
CCc1ccccc1NC(=O)CN1CCN(Cn2c(=O)oc3ccccc32)CC1	.	90	87	-29
COc1cccc(NC(=O)C2CC(=O)n3cnnc3S2)c1 (centres undefined)	99	83	43	-8
Cc1nnc(-n2nc(-c3ccccc3)cc2N)[nH]c1=O	105	96	66	1
CCOC(=O)C1CCCN(C(=O)c2[nH]c3ccccc3c2Sc2ccc(Cl)cc2)C1 (centres undefined)	102	90	74	-9
CCNc1ccccc1-c1nc2ccccc2[nH]c1=O	104	102	91	-5
CC(C)C(NS(=O)(=O)c1cccs1)C(=O)N(C)Cc1ccccc1 (centres undefined)	105	108	96	0
O=C(O)c1ccccc1OCc1nc2ccccc2s1	.	106	84	1
COc1cccc(C(CC(=O)c2ccc(Cl)cc2)C(C#N)C#N)c1 (centres undefined)	.	51	78	-1
Cc1cccc(N(CC(=O)Nc2ccc3c(c2)oc2ccccc23)S(=O)(=O)c2ccccc2)c1	.	92	82	-14
Cc1cc(=O)n2nc(N3CCCC3C(=O)Nc3cccc(F)c3)sc2n1 (centres undefined)	117	90	75	.
O=C1OC(Nc2ccccn2)c2ccccc21 (centres undefined)	102	96	83	10
CCOC(=O)c1[nH]c(COC(C)=O)cc1C	.	98	89	-14
O=C(Cn1ncc2c(=O)oc3ccccc3c21)N1CCN(C2CCCCC2)CC1	99	110	86	.
CN(c1ccccc1)S(=O)(=O)c1ccc2[nH]c(=O)oc2c1	103	87	74	0
